Compound activity: PubChem, ICCB-Longwood Screening Facility, Harvard Medical School
MgrA DNA FP – S. aureus MgrA-DNA binding modulation; fluorescence polarization; inhibition, %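 (about 10 µg/mL by stock and volumes)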; 84,000 compounds, 0.13% hits;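 active = above 50% in either of two replicates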;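 also: 0% = protein plus DNA without compound and 100% = DNA alone without protein; higher means less MgrA bound to DNA so lower polarization; one replicate is shown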
Sa helicase inh – blocks Staphylococcus aureus DNA helicase. purified S. aureus helicase, fluorescence unwinding assay; about half of the hits fall short of the stated cut. inhibition, %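 (tested at about 80 µM)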. 120,000 compounds, 0.05% hits. AID 485395;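 active = both duplicates at 50% or more, or one of them with a favoured structure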;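 also: 0% = mean of negative control wells and 100% = mean of positive control wells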
An asterisk follows results filed as active; nt = no result given; & = joins results of further samples.

SMILES	MgrA DNA FP	Sa helicase inh
O=C(CCS(=O)(=O)c1cc(Br)cc2c1N(C(=O)C1CC1)CC2)NC1CCCCCC1	0.6	8
CCCNC(=O)c1c(C)cc(=O)oc1C	1.8	11
CCOc1ccc2c(c1)nc1n2C(=O)C(c2ccccc2)CS1 (stereo not drawn)	1.1	8
Cc1ccc(-c2nc3ccccc3s2)cc1NC(=O)c1ccc2c(c1)OCCO2	nt	0
O=C(Nc1ccc(OC(F)(F)F)cc1)C1=NCCN1	-3.2	14
O=C(Nc1ccc(NC(=O)c2ccccc2O)cc1)c1ccc(Cl)cc1	-1.4	nt
CNCC(O)CN1CCN(c2ccccc2OC)CC1 (stereo not drawn)	-1.6	14
Cc1ccc(-c2cc(C(=O)N3CC(C)OC(C)C3)c3ccccc3n2)cc1 (stereo not drawn)	-2.0	11
COc1ccc(C2c3ccsc3CCN2S(=O)(=O)c2ccc(Cl)cc2)cc1 (stereo not drawn)	0.8	nt
C=C(C)c1cccc(C(C)(C)NC(=O)N(C)C2CCN(C)CC2)c1	1.4	3
O=c1c(-c2ccccc2)c(O)nc2ccccn12	3.1	9
O=C1CC(c2cccs2)CC(O)=C1C=NCCN1CCNCC1 (stereo not drawn)	5.2	11
CCOC(=O)c1ccc(NC(=S)NN2CCN(C)CC2)cc1	2.1	0
COc1ccc2[nH]cc(CCNC(=O)NC34CC5CC(CC(C5)C3)C4)c2c1	0.1	11
O=C(CSc1nccn1-c1ccc(F)cc1)Nc1ccc2c(c1)OCCO2	nt	13
CC(=O)c1nnn(-c2cccc(Cl)c2Cl)c1C	-0.4	nt
O=C(CSc1cccc[n+]1[O-])N(CCc1ccccc1)Cc1ccccc1	-1.6	-20
Cc1ccc(-c2cc(C(=O)N(C)C3CCCCC3)no2)cc1	-2.9	-8
CCc1ccc(-c2nnn(CC#N)n2)cc1	2.0	-3
Cc1ccc(NC(=O)C2CC=CCC2C(=O)N2CCCCC2)cc1 (stereo not drawn)	-1.2	18
O=C1CS(=O)CN1c1ccc(Br)cc1 (stereo not drawn)	1.2	nt
Cc1noc(C)c1COc1ccc(C(=O)OCC(=O)Nc2sc3c(c2C(N)=O)CCC3)cc1	nt	-15
c1ccc(-c2csc(-c3ccc(-c4ccccn4)s3)n2)cc1	nt	-6
Cc1ccc(CNC(=O)C2C3C=CC4(CN(Cc5cccnc5)C(=O)C24)O3)cc1 (stereo not drawn)	nt	-22
CCOC(=O)c1cc(-c2ccnn2C(=O)c2ccc(C)cc2)on1	nt	5
Going on with the list:
SMILES	MgrA DNA FP	Sa helicase inh
CCS(=O)(=O)c1nc2ccccc2n1CCOc1ccc(Cl)cc1	nt	-6
CCN1C(=O)OC(C)(CCc2ccccc2)C1(C)O (stereo not drawn)	-2.2	-5
CCCc1c(C#N)c(N)[nH]c(=S)c1C#N	8.6	14
Cc1ccc2c(C)c(C(=O)N(Cc3ccccc3F)C3CCS(=O)(=O)C3)oc2c1 (stereo not drawn)	nt	20
CC1CCCCC1NC(=O)CN1N=C(c2ccccc2)CCC1=O (stereo not drawn)	-2.3	4
O=C(NC1CCCCC1)c1ccc2c(c1)NC(=O)C(CS(=O)(=O)Cc1ccc(F)cc1)N2 (stereo not drawn)	nt	1
CCc1ccc(Oc2coc3cc(OC(C)C(=O)OCC(C)C)ccc3c2=O)cc1 (stereo not drawn)	1.5	9
Cc1ccc(NC(=O)COC(=O)C2CCC(=O)N2)c(S(=O)(=O)N2CCOCC2)c1 (stereo not drawn)	nt	1
N#Cc1ccc(CONC(=O)C23CC4CC(CC(C4)C2)C3)cc1	nt	7
Cc1ccc2c(c1)c1c(n2CC2COC(C)(C)O2)C(=O)CCC1 (stereo not drawn)	1.1	nt
Cc1nnc(NC(=O)c2ccc(S(=O)(=O)N3CCCC3)cc2)o1	nt	15
COc1cc(S(=O)(=O)N2CCCCC2)ccc1F	nt	-19
COc1cc2c(cc1OC)C(C)N(Cc1sc3ccccc3c1C)CC2 (stereo not drawn)	1.1	nt
CC1CC(C)CN(C(=O)Cn2c(=O)n(Cc3ccc(C(=O)NCc4ccco4)cc3)c(=O)c3ccccc32)C1 (stereo not drawn)	nt	2
COC(=O)c1[nH]c2sc3c(c2c1-n1cccc1)CCCC3	nt	-2
Cc1cccn2cc(-c3ccc(Cl)cc3)cc12	-1.0	5
O=C1CCCN1c1ccc(S(=O)(=O)Nc2ccc(I)cn2)cc1	nt	6
COC(=O)c1cc2c(cc1NC(=O)c1ccc3c(=O)n4c(nc3c1)CCCCC4)OCO2	nt	5
Cc1cc(C)cc(NC(=O)Nc2cc(-c3ccccc3)nn2C)c1	nt	-41
Cc1cccn2c(=O)c3cc(C(=O)N(C)C)n(C)c3nc12	nt	-3
CC(=O)NCCC(=O)Nc1c(C)cc(C)cc1C	nt	-6
O=C(C1CC1)N1CCc2cc(Br)cc(S(=O)(=O)NCCCN3CCCCC3)c21	nt	12
CC(C)c1cc(C(=O)O)c2cc(Br)ccc2n1	nt	-12
COc1cc(-c2cc(=O)c3cc(OCC(=O)O)ccc3o2)cc(OC)c1OC	2.4	6
CCOC(=O)COc1nc(-c2ccccc2)cc(-c2ccco2)c1C#N	-0.8	nt
Continuation.
SMILES	MgrA DNA FP	Sa helicase inh
Cc1ccc(-c2nn(-c3ccccc3)cc2C(=O)NCCN(C)C)cc1	-0.8	-21
O=C(COc1ccc(F)cc1)OCc1cc(=O)n2c3c(sc2n1)CCCC3	nt	-4
COC(=O)C1=CN(C2CCCCC2)C=C(C(=O)OC)C1c1cccc(C)c1	nt	32
Cn1c(CCCNC(=O)c2cccs2)nc2ccccc21	nt	-5
O=C1CC(c2ccc(Cl)cc2)Sc2nc3ccccc3n21 (stereo not drawn)	nt	-18
CCCn1c(SCc2ccc(Br)cc2)n[nH]c1=O	nt	-8
O=C(CC(=O)Nc1cccnc1)Nc1cccnc1	-2.2	nt
O=C(c1cncc(NS(=O)(=O)c2ccc(Cl)cc2)c1)N1CCN(Cc2ccccc2)CC1	1.6	-3
N#Cc1c(Nc2ccccc2)s[nH]c1=O	0.2	nt
CCOc1ccccc1C1C(C#N)=C(SCc2ccccc2)NC(=O)C1C#N (stereo not drawn)	nt	-14
Cc1ccc(N2C(=O)c3[nH]nc(-c4ccc(Br)cc4)c3C2c2ccco2)cc1 (stereo not drawn)	nt	-30
Fc1ccc(Oc2cnc3ccccc3n2)cc1	0.2	nt
COc1ccc(NC(=O)CC2C(=O)N(C)C(=S)N2CCNC(C)=O)cc1 (stereo not drawn)	nt	3
Cc1ccc2[nH]c(=O)c3cc(C(=O)N(CC(C)C)CC(C)C)sc3c2c1	0.6	6
CCNC(=S)N1CCN(S(=O)(=O)c2ccc(C)cc2)CC1	nt	3
O=c1[nH]nc(-c2ccc(F)cc2)cc1Cc1ccco1	nt	-22
COC(=O)c1cn(CC(=O)Nc2ccc(S(=O)(=O)NC3=NCCCCC3)cc2)c2ccccc12	nt	-1
COC(=O)C(Cc1ccccc1)NC(=O)Nc1ccccc1OC (stereo not drawn)	nt	6
CC(C)(O)C1(C)NCCc2ccccc21 (stereo not drawn)	-0.8	11
CCOc1cc(/C=C2\SC(=S)N(C(C(=O)O)C(C)C)C2=O)ccc1O (stereo not drawn)	nt	-156
N#CC1=C(N)C(C#N)(C#N)C(c2ccccc2)C2CCCC=C12 (stereo not drawn)	10	-7
CCOC(=O)C1=C(N)N2C(=O)C(C)SC2=C(C(=O)OC)C1c1ccc(C)cc1 (stereo not drawn)	-1.9	6
CCC(C1=C(O)CC(C)(C)CC1=O)C1=C(O)CC(C)(C)CC1=O	nt	-1
O=C(O)c1ccccc1-c1ccccc1C(=O)Nc1nccs1	nt	-21
Cn1c(C(=O)NC2CCCCCC2)cc2sc(Cl)cc21	nt	5
New compounds follow
SMILES	MgrA DNA FP	Sa helicase inh
CCC(C)(C)n1nnnc1C(c1ccccc1OC)N1CCN(C(=O)c2ccco2)CC1 (stereo not drawn)	-0.8	10
CC1=C(C(=O)Nc2ccc(C(=O)NCCN3CCOCC3)cc2)SCCO1	nt	5
COC(=O)c1ccc(NCN2C(=O)S/C(=C/c3ccccc3Cl)C2=O)cc1	2.9	nt
CC(=O)Nc1ccc(OC(=O)c2cccc(C)c2)cc1	nt	15
O=C(O)c1ccc(S(=O)(=O)n2ncc3ccccc32)cc1	nt	-13
Cc1nc2c3ccccc3n(CCc3ccccc3)c2s1	nt	28
COc1ccccc1CCCN	4.7	4
CC(CCc1ccccc1)NC(=O)C1=CCN(S(=O)(=O)c2ccc(F)cc2)CC1 (stereo not drawn)	0.7	4
CCCC(CC(=O)N1CCN(c2cccc(C)c2C)CC1)n1ccnc1 (stereo not drawn)	nt	2
Cc1cccc(-n2c(=O)c3[nH]c4ccccc4sc=3c2=O)c1	nt	30
Cc1ccc(Cn2c3ccccc3c3cn[nH]c(=O)c32)cc1	0.6	7
COc1cc(/C=N/N2CC(=O)NC2=O)ccc1OCc1csc(C)n1	nt	2
CCOC(=O)c1c(N)oc2c(-c3ccc(CC)cc3)c3c(C(=O)OCC)c(N)oc3cc12	2.2	-11
O=C(Nc1nnnn1/N=C/c1ccccc1F)c1ccc(F)cc1	6.8	16
COc1ccc(CNC(=O)c2oc3ccccc3c2C)cc1	-3.1	1
COC(=O)CSc1ncc(C#N)c(N)n1	2.9	-19
Nc1cc(S(=O)(=O)O)c(N)c2c1C(=O)c1ccccc1C2=O	19	nt
Cc1[nH]c2ccccc2c1C(Nc1ccccn1)c1ccccc1 (stereo not drawn)	nt	-18
CN(Cc1ccccc1)C(=O)COC(=O)c1ccc2ccccc2n1	-1.6	0
O=C(O)c1cc(C(=O)O)c(-c2ccccc2)c(C(=O)O)c1	0.9	-1
CCCCCOc1ccc(-c2ccc(Br)cc2)cc1	-2.5	nt
CCOc1ccc(C2C(C(=O)Nc3cc(C)on3)c3ccccc3C(=O)N2CCN2CCOCC2)cc1 (stereo not drawn)	nt	-31
CCOC(=O)C1=C(C)OC(N)=C(C#N)C1c1ccc(Cl)cc1 (stereo not drawn)	6.7	nt
CCN(CC)C(=O)COc1coc(CN2CCc3ccccc3C2)cc1=O	nt	-1
COc1ccc(C(=O)N2CCCc3ccccc32)cc1	5.2	30
More compounds
SMILES	MgrA DNA FP	Sa helicase inh
COc1ccc2c(c1)c(C(=O)O)c(C)n2-c1ccccc1	-1.6	-3
COCCNC(=O)C1c2ccccc2C(=O)N(CCOC)C1c1c[nH]c2ccccc12 (stereo not drawn)	nt	38
Cc1ccc(C(C)C)c(Oc2cc(NC(=O)c3cnn4c3NC(c3ccc(Br)cc3)CC4C(F)(F)F)cc([N+](=O)[O-])c2)c1 (stereo not drawn)	0.4	nt
CCCCC(C(=O)Nc1ccc(C)cc1C)N1C(=O)c2ccccc2C1=O (stereo not drawn)	nt	0
Clc1ccc(CSc2ncn[nH]2)cc1	4.2	10&3
CCSCCOC(=O)C1=C(C)NC2=C(C(=O)CCC2)C1c1cc(Br)c(O)c(OC)c1 (stereo not drawn)	0.9	nt
CCCCN(C)C(=O)C1CCC(=O)N(c2cc(OC)c(OC)c(OC)c2)C1c1ccc(OC)cc1 (stereo not drawn)	-0.5	12
O=C(C1c2ccccc2C(=O)N2CCc3ccccc3C12)N1CCCC1 (stereo not drawn)	0.4	2
O=C1CN(C(=O)c2ccccc2)C(=S)N1	nt	19
CC(=O)N(CCc1ccccc1)Cc1nc2ccccc2c(=O)[nH]1	-2.9	9
O=C(/C=C/Sc1nc2ccccc2o1)c1ccccc1	nt	22
COc1ccc(Cl)cc1C(=O)N1CCCC1C(=O)OCc1ccccc1 (stereo not drawn)	1.4	-1
CCOC(=O)C1=C(CSc2nc3scc(-c4cccs4)c3c(=O)[nH]2)NC(=O)NC1C (stereo not drawn)	nt	25
Cc1ccc(S(=O)(=O)N(Cc2ccco2)c2nc3ccccc3nc2Cl)cc1	nt	-4
O=C(COc1ccc(Br)cc1)N/N=C1\SCC(=O)N1c1ccc(F)cc1	3.8	-7
Cc1ccc2oc(=O)c3cc(C(=O)N4CCN(c5ccc(F)cc5)CC4)sc3c2c1	-0.8	10
CCN(CC)c1nnc(-n2cccc2)s1	nt	7
FC(F)(F)c1cc(NC2=NCCN=C(Nc3cc(C(F)(F)F)cc(C(F)(F)F)c3)SS2)cc(C(F)(F)F)c1	0.0	nt
Cc1ccc(Cl)cc1N1CCN(C(=O)c2ccc3c(=O)n4nc(Nc5ccccc5)sc4nc3c2)CC1	nt	9
CCOC(=O)c1[nH]nc(N)c1-c1cccc(OC)c1	-1.3	1
Cc1cc(/C=N/NC(=O)Cn2nnc(-c3ccccc3)n2)c(C)n1CC(C)C	nt	5
CCN(CC)c1ccc(C=Nc2ccc(C#N)cc2)cc1	0.6	-2
CCC12CC3CC(CC(Br)(C3)C1)C2	-1.5	nt
CC(=O)O[C@@H]1[C@@H](OC(C)=O)[C@@H](OC(C)=O)CO[C@H]1C#N	-1.0	nt

These rows are one share of the data. The share of hits here may be higher or lower than overall.
